HIV TAR-Tat: HIV-1 TAR-Tat binding disruption; HIV-1 TAR RNA, Tat peptide displacement FRET; active compounds read high; z-score (test concentration not listed); 100,000 compounds, 0.6% hits; AID 1259389;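 further: score is relative to mean and SD of negative controls; some compounds called inactive have numbers as strong as hits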
CDC25B-CDK2 inh: human CDC25B-CDK2/CyclinA binding inhibition | 94,000 compounds, 0.72% hits | P30305+P24941 | z-score (no concentration beside the values) | HTRF CDC25B-CDK2/CyclinA binding, anti-His/anti-Flag; active compounds read high;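 further: score is relative to mean and SD of negative controls; strong numbers were not always called active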
The depositor's hits bear a star; / = no result given.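 How the source made its calls: active means z-score from 3 up in half or more of its runs; inactive means the rest.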 Outcome played no part in choosing rows. About 0.89% of those tested had a hit in this group.

canonical_smiles | HIV TAR-Tat | CDC25B-CDK2 inh
COC(=O)c1cc(Nc2nc3ccc(C(=O)c4ccccc4)cc3n3c(C)nnc23)cc(C(=O)OC)c1 | -0.08 | /
CCCCN1C(SCC(=O)N2CCCC2)=NS(=O)(=O)c2ccccc21 | 0.7 | /
Cc1ccc(-n2c(-c3ccco3)nc3c(cnn3-c3ccc(C)cc3)c2=O)cc1 | 0.7 | /
Cc1cccc(Nc2nc3nonc3nc2Nc2ccc(F)cc2)c1C | 1.6 | -0.75
Cc1ccc(-c2onc(C)c2C)cc1S(=O)(=O)Nc1ccc(F)cc1Cl | 0.2 | /
O=S(=O)(Nc1ccc(Oc2ccccc2)cc1)c1ccc(N2CCCCS2(=O)=O)cc1 | 0.71 | /
COc1ccc(OC)c(C2OCC(C)(C)n3c(-c4ccccc4)c4c(=O)n(C)c(=O)n(C)c4c32)c1 (stereo unspecified) | 0.23 | -0.94
O=C1CC(Nc2ccccc2)C=C1Nc1ccccc1 (stereo unspecified) | / | -0.13
O=C(CSc1nc(-c2ccccc2)nc2cc(=O)[nH]n12)NCCc1nc2ccccc2[nH]1 | 0.87 | /
COc1cccc(NC(=S)N=S(C)(=O)c2ccccc2)c1 (stereo unspecified) | / | -1.9
O=C1SCCC1NC(=O)C1c2ccccc2Oc2ccccc21 (stereo unspecified) | 0.1 | -2.1
N#Cc1cnc(Sc2nnc(-c3cccs3)n2-c2ccc(Cl)cc2)nc1N | / | -0.48
O=C(Nc1ccccc1F)c1nn(-c2ccc(Cl)cc2)ccc1=O | 0.99 | -1.6
COCCOC(=O)c1c(C)oc2ccc(OC(C)C(=O)OC)cc12 (stereo unspecified) | 0.15 | -0.92
Cc1cccc(C)c1OCc1nc2c3cnn(C)c3ncn2n1 | 1.5 | 0.23
Cc1ccc2c(c1)sc1nc(C)c(S(=O)(=O)Nc3ccc(C)c(Cl)c3)c(=O)n12 | 1.6 | /
CN(c1ccccc1)c1nc(-c2ccccc2)no1 | -0.49 | /
O=C(Nc1sc2c(c1C(=O)NCC1CCCO1)CCC2)c1cc(=O)c2ccccc2o1 (stereo unspecified) | -1.7 | -1.9
Cc1cc(NC(=O)Nc2c(C3=CCCCC3)c(C)nn2C)ccc1Br | 0.71 | -1.8
CC(=O)Oc1ccc(C2(c3ccc(OC(C)=O)cc3)OC(=O)c3ccccc32)cc1 | / | 0.3
C=CCNS(=O)(=O)c1ccc2nc(NC(C)=O)sc2c1 | 1.5 | /
COc1nnc(-c2ccc(C)c(S(=O)(=O)N(C)C)c2)c2ccccc12 | 0.28 | -1.1
CN(C(=O)c1noc2c1COc1ccccc1-2)c1ccc(F)cc1 | 0.84 | -1.4
O=C(Cn1c(=O)n(Cc2ccco2)c(=O)c2sc3ccccc3c21)Nc1ccc(F)cc1F | 2.5 | -1.3
COc1ccc(NC(=O)C2=Cc3sc(C)c(C)c3CS2)cc1Cl | -1 | /
CN(C)/C=C1\C(=O)c2ccccc2N(C)S1(=O)=O | / | -1
O=C(NCc1cccs1)c1cccn1-c1nnc(N2CCCCC2)s1 | 0.56 | /
C=C(C)Cn1c(N2CCN(CCO)CC2)nc2c1c(=O)n(C)c(=O)n2C | 1.1 | 1.5
O=C(O)/C=C/C(=O)Nc1ccc(N2CCCCCC2)c(NC(=O)/C=C/C(=O)O)c1 | / | -1.8
O=c1[nH]c2ccccc2c(-c2ccccc2)c1-c1cc(-c2ccccc2)c2ccccc2n1 | / | -0.5
CCOC(=O)c1c(NC(=O)c2nn(-c3cccc(Cl)c3)ccc2=O)sc(C)c1C | 0.59 | 0.68
Cc1nc2scc(C)n2c(=O)c1S(=O)(=O)N1CCN(Cc2ccccc2)CC1 | 1.2 | -1.7
CC(C)(CC(=O)O)CC(=O)N1CCN(Cc2c(F)cccc2Cl)CC1 | / | -2.4
O=S(=O)(c1ccc(F)cc1F)n1nccc1-c1csc(-c2ccccc2)n1 | / | -0.37
CCOCCc1nn2c(=O)cc(COC(=O)c3cccc(F)c3)nc2s1 | -0.7 | /
CCCCN(C)CCNC(=O)C1CCCN(c2ncnc3c2nc2n3CCCCC2)C1 (stereo unspecified) | 0.51 | /
CCOC(=O)C1=C(C)NC(C(=O)NCCCN2CC(C)CC(C)C2)CS1 (stereo unspecified) | -0.26 | 0.08
Cc1ccc(NS(=O)(=O)c2cc3[nH]c4c(c3cc2C)C(=O)CCC4)cc1C | 0.48 | /
O=C(Nc1ccc(F)cc1)C1CC(=O)n2c(nc3ccccc32)N1 (stereo unspecified) | 0.34 | -2
CCOc1cc(C2CC(=O)Nc3nc(SC)[nH]c(=O)c32)ccc1O (stereo unspecified) | 1.8 | -2.5
Cc1ccc(-c2onc(C)c2C)cc1S(=O)(=O)N1CCC(C)CC1 | 0.62 | /
Cc1cccc(OCc2nn3c(Cn4cnc5ccccc54)nnc3s2)c1 | 1.4 | 0.33
COc1ccc(-c2cc(C(=O)Nc3nc4ccc(S(C)(=O)=O)cc4s3)c3ccccc3n2)cc1 | / | -9.8
CCN1CCCC1CNC(=O)Nc1ccc2c(c1)N(C)C(=O)c1ccccc1S2 (stereo unspecified) | -0.45 | -0.8
O=C(NCc1csc(-c2cccs2)n1)C1CCN(C(=O)C2CCCC2)CC1 | 0.99 | /

7 successive records from above:
canonical_smiles | HIV TAR-Tat | CDC25B-CDK2 inh
O=C(Nc1ccc(F)cc1)C1CC(=O)n2c(nc3ccccc32)N1 (stereo unspecified) | 0.34 | -2
CCOc1cc(C2CC(=O)Nc3nc(SC)[nH]c(=O)c32)ccc1O (stereo unspecified) | 1.8 | -2.5
Cc1ccc(-c2onc(C)c2C)cc1S(=O)(=O)N1CCC(C)CC1 | 0.62 | /
Cc1cccc(OCc2nn3c(Cn4cnc5ccccc54)nnc3s2)c1 | 1.4 | 0.33
COc1ccc(-c2cc(C(=O)Nc3nc4ccc(S(C)(=O)=O)cc4s3)c3ccccc3n2)cc1 | / | -9.8
CCN1CCCC1CNC(=O)Nc1ccc2c(c1)N(C)C(=O)c1ccccc1S2 (stereo unspecified) | -0.45 | -0.8
O=C(NCc1csc(-c2cccs2)n1)C1CCN(C(=O)C2CCCC2)CC1 | 0.99 | /

The listing continues:
canonical_smiles | HIV TAR-Tat | CDC25B-CDK2 inh
O=C(CCc1nc(CSc2nc3ccccc3o2)no1)Nc1ccc(F)c(Cl)c1 | 0.59 | /
Cc1c(OCC(F)(F)F)ccnc1CS(=O)c1nc2ccccc2[nH]1 (stereo unspecified) | 2.1 | -2.6
CCc1nc(C)cn1S(=O)(=O)c1cc(C(C)C)c(C)cc1OC | 0 | -0.19
CCCCN(CC)c1ncnc2c1cnn2-c1cccc(Cl)c1 | 0.71 | /
Cc1oc(-c2nc3ccccc3n2C)cc1S(=O)(=O)O | / | -2.3
O=C1CCC(=O)N1c1ccc(-c2nc3sc4c(c3c(=O)o2)CCC4)cc1 | 0.97 | 0.76
CCc1nc2nc(C)cc(N3CCN(c4ccc(OC)cc4)CC3)n2n1 | 1.4 | /
COC(=O)Cn1cnc2c(C#N)c3n(c2c1=O)CCCCC3 | / | -2.3
C=CCOc1ccc(C2CC(=O)Nc3c(-c4ccccc4)csc32)cc1 (stereo unspecified) | 1.9 | /
COc1cc(OC)cc(C(=O)Nc2ccc(O)c(-c3nc4ccccc4o3)c2)c1 | / | -3.8
N#CSc1ccc(NC(=O)C2COc3ccccc3C2)cc1 (stereo unspecified) | -0.53 | -5.9
COc1ccc(NS(=O)(=O)c2ccc3[nH]c4c(c3c2)CCCCCC4)cc1 | 0.77 | /
O=S(=O)(NC1CCCCC1N1CCC(O)CC1)c1ccccc1 (stereo unspecified) | 0.01 | -0.5
COc1cc(C2NC(=O)c3c(sc4c3CCN(C)C4)N2)ccc1O (stereo unspecified) | -8.1 | -0.03
C=CC[C@@H]1C=C(C)C[C@H](C)C[C@H](OC)[C@H]2O[C@@](O)(C(=O)C(=O)N3CCCC[C@H]3C(=O)O[C@H](/C(C)=C/[C@@H]3CC[C@@H](O)[C@H](OC)C3)[C@H](C)[C@@H](O)CC1=O)[C@H](C)C[C@@H]2OC | -0.07 | /
O=C(CC1(O)C(=O)N(CCCc2ccccc2)c2ccccc21)c1cccc(Br)c1 (stereo unspecified) | 0 | -0.48
COC(=O)c1cc(=O)c2cc(Cl)ccc2[nH]1 | -1.7 | -1.3
Cc1cc(C)n2ncc(C(=O)Nc3ccc(F)cc3F)c2n1 | 0.52 | -2.3
CCSc1ncc2c(=O)n(CC(=O)N3CCN(c4ccc(F)cc4)CC3)cnc2n1 | 1.7 | /
Cc1nc(-c2ccc(S(=O)(=O)N3CCN(C4c5ccccc5-c5ccccc54)CC3)s2)cs1 | / | -1.1
Cc1c(NS(=O)(=O)c2ccc(N3CCCC3=O)cc2)c(-n2cnnc2)nn1C | 0.89 | -0.67
CCCCNC(=O)c1cnc(N2CCOCC2)nc1C | 1.9 | /
COc1ccc(-c2c(C#N)c(N)nc3c2CCCCCC3)cc1 | 0.51 | -0.92
O=C1CC(=O)Nc2cc(S(=O)(=O)Nc3ccc(F)cc3F)ccc2N1 | -0.9 | -1.1
Cc1ccnc(NC(=O)Cn2nc([N+](=O)[O-])c(Br)c2C)c1 | 1.8 | -1.4
Cc1nn(-c2ccc(N3CCOCC3)nn2)c(C)c1CCC(=O)Nc1ccc2c(c1)OCCO2 | -1 | /
Cc1nc2cc(S(=O)(=O)N3CCC(C(=O)N4CC(C)CC(C)C4)CC3)ccc2n1C1CCCC1 (stereo unspecified) | -0.89 | 0.49
CCc1nnc(SCC(=O)Nc2cc(Cl)ccc2OC)c2cc3oc(C)cc3n12 | 2 | /
N#Cc1ccc(-c2ccc(Cl)cc2[N+](=O)[O-])o1 | / | -1.5
FC(F)(F)c1ccc(-c2nnc(-c3ccc4nccnc4c3)o2)cc1 | / | -0.73
CSC(=NC#N)/N=c1/nc(SC)n(C)n1C | / | -2.1
CCCCSc1nnc2c(n1)OC(/C=C/c1ccc([N+](=O)[O-])o1)Nc1ccccc1-2 (stereo unspecified) | / | -2.5
COCC(=O)N1c2nc(-c3ccco3)nn2C2(CCCCC2)[C@@H]2CCCC[C@@H]21 | 2.3 | -0.7
O=C1Nc2ccccc2C(O)(C(=O)NCc2ccco2)N1c1ccccc1 (stereo unspecified) | / | 0.63
Fc1ccc(Nc2nnc(-c3ccccc3Cl)s2)cc1 | / | -0.86
CS(=O)(=O)N1CCCc2ccc(NS(=O)(=O)c3ccccc3)cc21 | 0.53 | /
CC1(C)O[C@H]2O[C@H](C(CC#N)OS(C)(=O)=O)[C@H](OCc3ccccc3)[C@H]2O1 (stereo partly specified) | / | -2.4
COc1ccc(N2C(=O)c3c(c4ccccc4n3C)C2c2cc(OC)ccc2O)cc1 (stereo unspecified) | / | -0.79
Cc1nc(SCCC(=O)O)[nH]c(=O)c1Cc1ccccc1 | 2 | -1.4
CCCSc1nnc(NC(=O)Cc2coc3ccc(C)cc23)s1 | -0.19 | -3.9
Cc1ccc2c(c1)N(Cc1ccccc1F)C=NS2(=O)=O | 0.42 | /
Cc1cccc(CN2C(=O)Nc3ccccc3S2(=O)=O)c1 | 0.65 | /
CCC(C)(C)NS(=O)(=O)c1cc2c(cc1Cl)NC(=O)CO2 | 2.6 | /
CC1Cc2cc(S(=O)(=O)NCc3ccco3)ccc2N1C(=O)C1CCC1 (stereo unspecified) | 0.54 | /
CCOc1ccccc1Nc1ncnc2c1cnn2-c1cccc(Cl)c1 | 1.8 | /
COCCOC(=O)C1=C(C)NC2=C(C(=O)CC(C)(C)C2)C1c1cccc(OC)c1OC (stereo unspecified) | 0.17 | -0.52
COC(=O)c1cc(S(=O)(=O)Nc2c(C)cc(C)cc2C)cn1C | 1.9 | -1.9
CCCN1CCN(c2nnc(-n3cccc3CNc3ccc(OC)cc3OC)s2)CC1 | 1.4 | /
Cc1nc2cccc(C)n2c(=O)c1NC(=O)CCCc1ccccc1 | 1.8 | /
CCC(C)(C)NS(=O)(=O)c1ccc2c(c1)CC(C)N2C(=O)C1CCC1 (stereo unspecified) | -0.29 | /
O=C(CN1C(=O)C2(OCCO2)c2ccccc21)c1ccc(Cl)cc1 | / | 0.5
CC(C)c1cc(-c2nc(-c3ccc(Br)cc3)no2)n[nH]1 | -0.04 | /
Cc1ccc(-c2n[nH]c(=O)c3c2CCCC3)cc1S(=O)(=O)N1CCCc2ccccc21 | -1.8 | 1.7
COc1ccc(NC(=O)c2cc(F)c(N(C)C)c(F)c2)cc1 | / | -2.5
CC(=O)Oc1cccc(OC(C)=O)c1[N+](=O)[O-] | / | -0.19
COc1ccc(OC)c(Nc2nn3c(=O)c4ccccc4nc3s2)c1 | 2 | /
CC1(C)CC(=O)C2=C(C1)NC(=S)NC2C1CCCCC1 (stereo unspecified) | / | 1.6
COC(=O)c1cc(S(=O)(=O)NCC2CCN(CCc3cccs3)CC2)cn1C | 0.5 | /
Cc1cc(=O)n2[nH]c(-c3sc4ccc(Cl)cc4c3C)cc2n1 | / | -1.6
COCCOC(=O)C1=C(C)NC2=C(C(=O)CC(c3ccccc3)C2)C1c1cccnc1 (stereo unspecified) | / | -1.4

Other compounds
canonical_smiles | HIV TAR-Tat | CDC25B-CDK2 inh
CC(=O)Nc1nccc(-c2cc(-c3cccc(C(F)(F)F)c3)no2)n1 | / | -1.3
O=c1nc2c(-c3ccccc3Cl)n[nH]n2c2ccc(Cl)cc12 | 3 | 1.3
Cc1c(C(=O)N2CCOCC2)c(S(=O)(=O)N2CCOCC2)c(C)n1C | 0.87 | /
CNc1nc(Nc2cccc(Cl)c2)c2cnn(C)c2n1 | 1.2 | /
CC1CCCN(S(=O)(=O)c2cc(F)ccc2CN2C(=O)c3cccnc3C2=O)C1 (stereo unspecified) | 0.27 | /
CC(C)CSc1ncnc2c1oc1nc3c(cc12)COC(C)(C)C3 | 0.43 | /
COc1cc(-c2nc3c([nH]2)c(=O)n(C)c(=O)n3C)ccc1O | -1.5 | -1.2
